MT1-MMP act inh: blockers of MT1-MMP proenzyme processing, primary screen, HT1080 RFP-PRO-GFP cells, GFP/RFP fluorescence; Matrix metalloproteinase-14 (Homo sapiens), P50281; GFP/RFP ratio fluorescence, overnight; percent of plate control window, DMSO zero; GFP/RFP ratio change, % at 20 µM; 360,000 tested, 0.061% active; AID 651647, 2012;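 active means GFP/RFP ratio change of at least 30% with cell ATP level not reduced by more than half and red fluorescence within 50% of control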; further: strong numbers were not always called active
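Assay system: HT1080 cells carrying an RFP-PRO-GFP reporter | Dosing: Single dose of 20 µM compound, 1% DMSO final | Incubation: Cells overnight before dosing, compound overnight, 37 °C, 5% CO2 | Evaluation: GFP/RFP fluorescence ratio | Control set: DMSO and RFP-L50D-GFP cell wells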
Rce1 inh: yeast Rce1p protease inhibitors, primary screen, biochemical, fluorescence, cell-free homogeneous; AID 2563, 2010; CAAX prenyl protease 2 (Saccharomyces cerevisiae (strain ATCC 204508 / S288c)), Q03530; 290,000 tested, 0.27% active; yeast membranes, quenched prenylated peptide cleavage fluorescence; calls only;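 active means fall in fluorescence gain of 50% or more versus controls, with final raw signal at or below 3038400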;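 further: plate controls were neutral control wells for no effect and wells lacking membranes for full effect; tested at 10 µM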
Target sequence (Q03530 whole entry, looked up): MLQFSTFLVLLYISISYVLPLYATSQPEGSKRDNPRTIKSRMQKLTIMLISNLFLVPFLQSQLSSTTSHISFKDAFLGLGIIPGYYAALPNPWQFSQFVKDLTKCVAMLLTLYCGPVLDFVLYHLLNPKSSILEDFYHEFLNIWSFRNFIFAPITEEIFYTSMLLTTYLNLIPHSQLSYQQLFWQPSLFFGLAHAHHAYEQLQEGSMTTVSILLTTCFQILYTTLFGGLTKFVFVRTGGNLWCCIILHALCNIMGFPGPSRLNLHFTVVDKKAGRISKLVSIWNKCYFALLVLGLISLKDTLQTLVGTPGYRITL
PABP FP inh: PABP poly(A) RNA binding inhibitors, primary screen, biochemical, fluorescence polarization, uHTS; inhibition, % at 35 µM; 290,000 tested, 1% active;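 active means 50% or more with normal probe brightness, or confirmed in later tests; about a fifth of its hits are not listed in these tables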;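 further: calls also rest on retests at 20 µM and on dose response follow-up; controls were probe without protein and protein plus probe with vehicle; some compounds called inactive have numbers as strong as hits; many hits fall short of the cut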
CSC inhib: cancer stem cell viability inhibitors, primary screen, luminescence; cancer stem cell-like cells viability; inhibition, % at 7.5 µM; 300,000 tested, 1.1% active; AID 2717, 2010;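 active means mean at 75% or more and at least half the replicates too; tested in HMLE shEcad cells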;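 further: 0% = median of negative and 100% = median of positive control wells; the first replicate is given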
Yeast UUG start: modulators of yeast start codon fidelity, primary screen, whole organism, S. cerevisiae, single point, plate reader; S. cerevisiae UUG-firefly luciferase reporter, luminescence/redox ratio; activity score, % at 18.7 µM; 350,000 tested, 0.13% active;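 active means replicate mean at a twofold rise or more, about +100% in these data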;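 further: firefly luciferase made from a UUG start codon reports start codon fidelity; reporter light over untreated wells divided by growth signal over untreated wells; some hits fall short of that in this replicate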
Env fusion inh: inhibitors of HIV-1 Env-driven cell-cell fusion, primary screen, HeLa-JRFL effector, CEM21 target cells, luciferase; inhibition, % at 12.3 µM; 360,000 tested, 1.1% active; AID 651610, 2012;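 active means mean replicate inhibition score of at least 50 and every replicate individually at or above 50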;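 further: 0% = plate neutral controls and 100% = maraviroc near 300 nM; one replicate is shown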
eIF4H FP inh: human eIF4H binding inhibitors, primary screen, translation initiation inhibitor project, biochemical, uHTS, fluorescence polarization | 290,000 tested, 0.94% active | inhibition, % at 35 µM | eIF4H fluorescence polarization binding assay | Eukaryotic translation initiation factor 4H (Homo sapiens), Q15056;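 active means 50% or more with normal probe brightness, or confirmed in later tests; about a fifth of its hits are not listed in these tables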;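 further: calls also rest on retests at 20 µM and on dose response follow-up; 0% = protein and probe with vehicle and 100% = probe without protein; strong numbers were not always called active; many hits fall short of the cut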
eIF4H FP inh retest: recorded beside eIF4H FP inh, whose call it bears; inhibition, %; compound at 20 µM; confirmation average;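 mean of two retest wells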
PABP FP inh retest: also measured in PABP FP inh; calls as there; inhibition, %; compound at 20 µM; confirmation repeats;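 mean of two retest wells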
MT1-MMP act inh RFP: second read-out of MT1-MMP act inh, no call of its own (marks repeat the call); RFP signal change, %; measured here: RFP expression control read;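 0 = vehicle wells; hits needed this value within 50% of zero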
Active calls of the source: *; i = inactive; . = no result given.

SMILES	MT1-MMP act inh	MT1-MMP act inh RFP	Rce1 inh	PABP FP inh	CSC inhib	Yeast UUG start	Env fusion inh	eIF4H FP inh	others
CN(C)CC(O)COc1cccc(OCC(O)CN(C)C)c1 (configuration not stated)	3	3	i	45	-13	-21	1	33
COc1cc(-c2noc(C)c2C#CC2(N)CCCCC2)cc(OC)c1OC	8	5	i	2	-14	-11	-22	-1
CCCCNC(=O)C1CCCN1C(=O)NC1CCCCC1 (configuration not stated)	1	4	i	11	-8	-20	-33	-14
CCOC(=O)C1(C(=O)OCC)C(C(=O)c2ccccc2)C1c1ccccc1 (configuration not stated)	-8	-14	.	.	.	-8	22	.
Cc1cc(C(=O)Nc2ccc(F)cc2C)n(-c2ccccc2)n1	3	7	i	6	4	.	-18	2
COc1ccc(N=C/C=C2\C=C(c3ccccc3)OC(C)(C)O2)cc1	-13	3	i	55	14	.	-1	-7	eIF4H FP inh retest=0;PABP FP inh retest=9
CCOC(=O)c1c(NC(C)=O)sc2c(O)cccc12	3	-1	i	3	-21	-27	-310	0
CC1CC(C)CN(C(=O)c2ccncc2)C1 (configuration not stated)	-3	5	i	1	-7	-9	-55	2
O=C(O)c1cccnc1SCc1cn2cc(Cl)ccc2n1	-4	1	i	-3	-5	13	5	-2
CC1CCCC(NC(=O)COC(=O)c2ccc3ncsc3c2)C1C (configuration not stated)	-2	3	.	.	.	-15	-1	.
CN(C)C=Nc1c(C(=O)c2ccccc2)sc2nccc(N(C)C)c12	-16	-7	i	-1	-20	.	54	-7
Cc1ccccc1C(=O)c1cccn1CC(=O)NCCCN1CCCCC1	-3	2	i	-1	.	.	-4	2
CC1CCN(CCCCOc2ccc(C(=O)c3ccccc3)cc2)CC1	0	1	i	3	-17	-12	-59	4
O=[N+]([O-])c1ccc(-c2csc3[n+]2CCS3)cc1	3	-3	i	-1	-16	.	.	-9
CCc1cc2cc3c(cc2nc1SCC(=O)Nc1cc(C)on1)OCO3	-5	-3	i	0	-10	-3	-179	-7
CC1(C)S[C@@H]2[C@H](NC(=O)C(NC(=O)N3CCNC3=O)c3ccccc3)C(=O)N2[C@H]1C(=O)O (some centres not stated)	-1	-1	i	1	-8	5	-7	-8
CCC(C)N1C(=O)CCC1C(=O)N1CCN(c2ccccc2F)CC1 (configuration not stated)	13	-4	i	-3	-5	2	-9	8
O=C(O)CNC(=O)CC1S/C(=N/N=C/c2ccccc2O)NC1=O (configuration not stated)	12	5	i	-3	0	.	24	13
CC(C)c1ccc(NC(=O)CSc2nc(=O)n(CCCN3CCOCC3)c3c2CCC3)cc1	7	-2	i	.	10	1	6	.
COc1ccc(N2C(=O)CSC2c2ccc3c(c2)OCO3)c(OC)c1 (configuration not stated)	-7	1	i	-9	-13	-2	-28	2

Reprinted from the part before: 2 compounds; new compounds follow.
SMILES	MT1-MMP act inh	MT1-MMP act inh RFP	Rce1 inh	PABP FP inh	CSC inhib	Yeast UUG start	Env fusion inh	eIF4H FP inh	others
CC(C)c1ccc(NC(=O)CSc2nc(=O)n(CCCN3CCOCC3)c3c2CCC3)cc1	7	-2	i	.	10	1	6	.
COc1ccc(N2C(=O)CSC2c2ccc3c(c2)OCO3)c(OC)c1 (configuration not stated)	-7	1	i	-9	-13	-2	-28	2
Cc1ccc(N2C(=O)CC(C)CC2=O)cc1	-4	-1	i	12	2	-14	-19	-9
CCOC(=O)C1=CNS(=O)(=O)NC1c1ccc(C(=O)OC)cc1 (configuration not stated)	4	8	.	.	.	-1	-4	.
COC(=O)C1=CN(c2cc(C)cc(C)c2)C=C(C(=O)OC)C1c1ccc(OC)c(O)c1	-7	-5	i	-2	5	-16	-3	-8
O=C(c1ccc(F)cc1)N1CCN(c2ccc([N+](=O)[O-])c(N3CCCCC3)c2)CC1	-1	-6	.	3	5	13	.	5
CCOC(=O)c1nn(-c2ccccc2)c2nnc(Cc3ccccc3)c(=O)n12	-1	5	i	16	.	.	.	-6
Cc1cc(NS(=O)(=O)c2ccc(NC(=O)c3ccc([N+](=O)[O-])c(Cl)c3)cc2)no1	6	5	i	6	0	-15	7	6
CC(C)(C)c1ccc(-c2n[nH]c(=S)n2Cc2ccccc2)cc1	1	-2	i	4	7	-3	-6	-11
COC(=O)/C=C1/S/C(=N/NC(=O)c2ccc(OC)cc2)NC1=O	-2	4	i	-3	-20	-14	3	5
O=C(Nc1ccc(Nc2ccccc2)cc1)c1c(F)c(F)c(F)c(F)c1F	0	-3	i	5	.	-4	-16	-2
N#C/C(=C/c1ccc(N2CCCCC2)o1)C(=O)Nc1ccc(Cl)cc1	-226	15	i	118	.	-20	-50	127*	eIF4H FP inh retest=87*;PABP FP inh retest=42
CC(=O)NNC(=O)c1csc(Cc2c(Cl)sc3ccc(Cl)cc23)n1	4	-2	i	-9	22	.	3	16
CCCn1nnnc1NC(=O)c1ccc2ccccc2c1	8	2	i	12	27	.	-31	6
COC(=O)c1ccc2c(c1)N(C)C(=O)CS2	6	8	i	3	-9	-9	-71	-8
CCc1c(C)nc(SCc2ccccn2)[nH]c1=O	2	7	i	-2	-17	.	-7	0
CCOc1ccc2[nH]c(=O)c(CN(Cc3cccs3)Cc3nnnn3C(C)(C)CC)cc2c1	-11	-16	i	-3	34	-15	.	-2
COc1ccc(NC(=O)C2CCC(N3C(=O)C4C5C=CC(C5)C4C3=O)CC2)cc1 (configuration not stated)	-5	1	i	-8	-2	-16	9	-4
CC1(C)CC(O)C(C)(C)N1O (configuration not stated)	1	3	.	3	.	-9	-62	9
CCCC(C1=C(O)CC(C)(C)CC1=O)C1C(=O)CC(C)(C)CC1=O (configuration not stated)	11	4	i	6	11	3	-23	-2
COc1cc(OC)c(/C=N/NC(=O)c2ccncc2)c(OC)c1	0	1	i	-3	-7	-23	-8	-15
CCSc1nnc(NC(=O)c2cccc(S(=O)(=O)N(C)c3ccccc3)c2)s1	0	0	i	5	37	.	-99	3
COc1ccc(C(C#N)N2N=C(c3ccccc3)CC2c2ccccc2)cc1OC (configuration not stated)	1	-3	i	-11	-9	.	-10	2
Cc1[nH]c(=O)[nH]c(=O)c1S(=O)(=O)NCCc1ccc(S(N)(=O)=O)cc1	-3	1	i	2	1	-13	.	3
O=C(Nc1ccc(CSc2ccccc2)cc1)c1ccc(CN2CCOCC2)cc1	0	-22	i	1	60	.	51	-7
CC(C)c1nnc(SCC(=O)Nc2ccc3c(c2)OCO3)n1C	-1	1	i	5	2	-2	-8	11
O=C(Cn1cnc2ccccc2c1=O)c1ccc2ccccc2c1	3	-1	i	-11	-1	-5	.	-2
CCOC(=O)c1cc2[nH]c3ccccc3c2[n+](-c2ccc([N+](=O)[O-])cc2)c1N	6	1	i	15	7	.	.	-15
COc1ccc(C(=O)N/C(=C\c2cn(C)c3ccccc23)C(=O)N2CCN(C)CC2)cc1OC	1	3	i	3	-11	-22	-10	-13
CCN(Cc1cc2ccc(C)cc2[nH]c1=O)C(=O)c1cccnc1	.	.	i	59*	.	.	.	84*
Cc1nc(-c2noc(-c3cccc(Cl)c3)n2)c(C(F)(F)F)o1	3	3	i	-4	0	.	-73	-3
Cc1ccc(-c2nn(C)c(=O)c3ccccc23)cc1CNC(=O)c1ccccc1	6	-2	i	3	-9	-16	14	-5
Cc1ccc(S(=O)(=O)N(C)C)cc1NC(=O)COC(=O)Cc1ccsc1	4	-1	i	.	-25	-6	.	.
CC(C)Oc1cccc(C(=O)NC(=S)Nc2ccc3c4c(cccc24)CC3)c1	-28	-2	i	3	37	-5	.	11
COc1ccccc1CN(C)C(=O)CN1C(=O)c2ccccc2C1=O	0	3	i	-2	-19	-19	-14	-3
CN(C)C(=S)Nc1ccc([N+](=O)[O-])cc1	2	5	i	8	-9	.	14	2
Cc1cccc(C(=O)NN2S(=O)(=O)c3ccccc3S2(=O)=O)c1	-2	1	i	-12	-11	-12	-20	2
Fc1cccc(/C=N/Nc2cc(N3CCOCC3)ncn2)c1	-7	-3	i	9	-17	-6	16	0
COc1ccc(CN2CC(C(=O)NCc3ccccn3)CC2=O)cc1 (configuration not stated)	2	7	i	8	-8	-27	.	8
Cc1cc(C)cc(OCC(=O)OCC(=O)NCc2ccco2)c1	-1	0	.	-1	-12	-7	-45	-1
CCOC(=O)c1ccc(NC(=O)CC2C(=O)N(c3ccc(F)cc3)C(=O)N2CCCOC)cc1 (configuration not stated)	5	5	i	-2	-17	-2	-31	12
Cc1noc2ncnc(Sc3c(Cl)cccc3Cl)c12	-5	-4	i	5	11	-10	.	3
O=C(COc1ccc(C(=O)NCC2CCCO2)cc1)Nc1cccc(C(F)(F)F)c1 (configuration not stated)	-2	-6	i	.	10	.	8	.
O=C(NC1CC1)c1ccc(CN(c2ccccc2)S(=O)(=O)c2ccccc2)cc1	.	.	i	-12	-3	.	-2	-2
C/C(N)=C(/C#N)C(=O)COC(=O)C1CCC(C(C)(C)C)CC1 (configuration not stated)	0	-2	i	13	-14	-6	19	-6
O=C(NCCCN1CCOCC1)c1ccccc1N1C(=O)[C@@H]2Cc3c([nH]c4ccccc34)C(c3cccc(Cl)c3)N2C1=O (some centres not stated)	0	-7	i	-13	-13	-20	.	-3
Cc1n[nH]c(C)c1S(=O)(=O)N1CCCC(C(=O)Nc2ccc(Br)cc2)C1 (configuration not stated)	3	-14	i	4	-1	-22	3	3
O=C(c1ccccc1Cc1ccccc1)N1CCN(S(=O)(=O)c2ccccc2Br)CC1	-6	-2	i	.	.	-5	0	.

Of the compounds above, these contain an aryl thioether with sulfur outside any ring:
SMILES	MT1-MMP act inh	MT1-MMP act inh RFP	Rce1 inh	PABP FP inh	CSC inhib	Yeast UUG start	Env fusion inh	eIF4H FP inh	others
O=C(O)c1cccnc1SCc1cn2cc(Cl)ccc2n1	-4	1	i	-3	-5	13	5	-2
CCc1cc2cc3c(cc2nc1SCC(=O)Nc1cc(C)on1)OCO3	-5	-3	i	0	-10	-3	-179	-7
CC(C)c1ccc(NC(=O)CSc2nc(=O)n(CCCN3CCOCC3)c3c2CCC3)cc1	7	-2	i	.	10	1	6	.
CCc1c(C)nc(SCc2ccccn2)[nH]c1=O	2	7	i	-2	-17	.	-7	0
CCSc1nnc(NC(=O)c2cccc(S(=O)(=O)N(C)c3ccccc3)c2)s1	0	0	i	5	37	.	-99	3
O=C(Nc1ccc(CSc2ccccc2)cc1)c1ccc(CN2CCOCC2)cc1	0	-22	i	1	60	.	51	-7
CC(C)c1nnc(SCC(=O)Nc2ccc3c(c2)OCO3)n1C	-1	1	i	5	2	-2	-8	11
Cc1noc2ncnc(Sc3c(Cl)cccc3Cl)c12	-5	-4	i	5	11	-10	.	3

Bioassay records deposited in PubChem BioAssay by several laboratories.

This is a subset (hit frequency here may not be typical).
